# Source: PubChem BioAssay
# AF4-AF9 inh: inhibitors of AF4 peptide binding to AF9, primary screen, biochemical, AlphaScreen, biotin-AF4 peptide, FLAG-AF9, single point | Protein AF-9 (Homo sapiens), P42568 | inhibition, % at 10 µM | 0.47% of 350,000 active;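 active = every replicate reaching a set inhibition limit, whatever the replicate mean, cut at about 25% in these data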;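 also: 0% = plate neutral control median and 100% = total signal loss; the record names both 10 and 1 µM as test concentration; the first replicate is given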
# Target sequence (P42568 whole entry, looked up): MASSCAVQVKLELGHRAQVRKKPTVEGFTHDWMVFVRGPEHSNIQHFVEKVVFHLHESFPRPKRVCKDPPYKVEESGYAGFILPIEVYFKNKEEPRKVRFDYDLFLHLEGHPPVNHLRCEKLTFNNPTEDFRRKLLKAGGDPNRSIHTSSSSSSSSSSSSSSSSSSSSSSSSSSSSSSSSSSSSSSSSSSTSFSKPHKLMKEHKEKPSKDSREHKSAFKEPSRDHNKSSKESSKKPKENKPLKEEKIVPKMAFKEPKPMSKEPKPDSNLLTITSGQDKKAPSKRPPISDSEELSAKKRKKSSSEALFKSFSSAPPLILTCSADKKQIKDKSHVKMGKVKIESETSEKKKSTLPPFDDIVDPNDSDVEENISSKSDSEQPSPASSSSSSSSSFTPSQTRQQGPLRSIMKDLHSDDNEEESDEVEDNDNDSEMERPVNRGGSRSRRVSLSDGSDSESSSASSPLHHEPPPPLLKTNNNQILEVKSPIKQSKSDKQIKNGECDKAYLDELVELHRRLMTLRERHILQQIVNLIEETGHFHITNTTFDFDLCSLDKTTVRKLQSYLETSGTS
# Ecoli rRNA inh: reduced GFP signal of wild-type E. coli, primary screen, bacterial rRNA inhibitor project, GFP/RFP fluorescence, OD600, single point; E. coli WT GFP vs humanized-ribosome RFP mutants, 24 h; stronger effect = lower value; DMSO median 0, no signal -100; GFP signal change (wild-type ribosome), % (no concentration beside the values); 1.6% of 350,000 active; AID 720706, 2013;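 active = significant combined selectivity score with lowered wild-type GFP, culture density cut under 30%, mutant RFP and density less affected; inactive = any of these conditions unmet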; also: one replicate is shown; some compounds called inactive have numbers as strong as hits
# FGF22 binding: binders of human FGF22 protein, primary screen, FGF22 synaptogenesis inhibitor project, biophysical, thermal shift, single point. Fibroblast growth factor 22 (Homo sapiens), Q9HCT0. recombinant FGF22 thermal shift, SYPRO orange fluorescence; percent of sucrose octasulfate shift, DMSO zero. calls only at 9.99 µM. 1.5% of 340,000 active. AID 651658, 2012;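 active = melting point raised past a set limit in the mean and every replicate; three in four hits are not shown here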
# Target sequence (Q9HCT0 whole entry, looked up): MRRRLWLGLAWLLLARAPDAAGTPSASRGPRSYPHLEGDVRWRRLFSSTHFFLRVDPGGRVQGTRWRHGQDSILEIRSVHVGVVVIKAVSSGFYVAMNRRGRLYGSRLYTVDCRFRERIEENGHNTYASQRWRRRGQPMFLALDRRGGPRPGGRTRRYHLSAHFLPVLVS
# Ecoli rRNA inh OD600: also measured in Ecoli rRNA inh; calls as there; OD600 change, %; measured here: OD600 growth;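 optical density of the mix in the first replicate; 0 = DMSO median and -100 = no signal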
# Ecoli rRNA inh RFP: recorded beside Ecoli rRNA inh, whose call it bears; RFP signal change, %; measured here: RFP humanized mutant strains;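 first replicate; 0 = DMSO median and -100 = no signal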
# Active calls of the source: *; i = inactive; . = not tested or not shown; & = joins results of further samples. Not all compounds are listed, so the mix of outcomes need not match the whole.
[1] Cc1ccc(S(=O)(=O)N(C)C[C@H]2Oc3c(NS(=O)(=O)c4ccc(F)cc4)cccc3C(=O)N([C@@H](C)CO)C[C@H]2C)cc1
[2] Fc1cccc(CN2C[C@@H]3N[C@H](C2)C3c2ccc(/C=C/c3ccccc3)cc2)c1 (some centres not stated)
[3] C[C@H](NC(=O)[C@H]1[C@H](CO)[C@H]2Cn3c(ccc(-c4cccc(F)c4)c3=O)[C@H]2N1C)c1ccccc1
[4] O=C(C[C@@H]1CC[C@H](NC(=O)C2CC2)[C@@H](CO)O1)NC1CCC1
[5] COc1ccc(CN(C)C[C@H]2OCCCC[C@@H](C)Oc3ccc(NS(=O)(=O)c4ccc(C)cc4)cc3C(=O)N([C@@H](C)CO)C[C@@H]2C)cc1
[6] C/C=C/c1ccc([C@@H]2[C@H](CO)N(C(C)=O)C23CN(C(=O)NC2CCCC2)C3)cc1
Assay by compound,1,2,3,4,5,6
AF4-AF9 inh,.,.,-1.8,-2.1,-4.2,-0.5
Ecoli rRNA inh RFP,0.3,-17.5&-12.8,1.6,-0.2,-1.6,-0.2
Ecoli rRNA inh,-0.6,-55.2&-55.9,-4.6,3.2,2.7,-0.2
FGF22 binding,i,i,.,.,.,.
Ecoli rRNA inh OD600,-4.5,-82.1&-77.8,-13.7,-5.6,12.5,0.4

[7] COc1ccccc1NC(=O)N1CC(=O)N2[C@H](CO)[C@H](c3ccc(-c4ccc(C)cc4)cc3)[C@@H]2C1
[8] CN(C)C(=O)c1cccc(-c2ccccc2[C@@H]2[C@H](C#N)N(C(=O)C3CCCC3)[C@H]2CO)c1
[9] CCC(=O)NC[C@H]1[C@@H](c2ccc(C3=CCCC3)cc2)[C@@H](CO)N1C(=O)CC
[10] CCS(=O)(=O)N[C@H]1C=C[C@H](CC(=O)Nc2ccccc2)O[C@H]1CO
[11] O=C(C[C@H]1CC[C@H](NC(=O)C2CCOCC2)[C@@H](CO)O1)NCC1CC1
[12] O=C(NCC1CC1)[C@@H]1[C@@H](CO)[C@@H]2Cn3c(cccc3=O)[C@@H]2N1C(=O)Nc1ccccc1
Assay by compound,7,8,9,10,11,12
AF4-AF9 inh,1.4,0.2,-2.5,-3.3,-2.0,1.2
Ecoli rRNA inh RFP,25.6,4.2,1.0,-1.0,0.1,-1.9
Ecoli rRNA inh,0.3,4.5,-0.4,-2.0,-1.2,-0.7
FGF22 binding,.,.,.,.,.,.
Ecoli rRNA inh OD600,-35.6,1.6,0.3,-4.9,-5.0,-8.0

[13] CN1CCC(N(C)C(=O)c2ccc(Cl)c(S(=O)(=O)N3CCOCC3)c2)CC1
[14] O=C(c1cccnc1)N1CC(=O)N2[C@H](CO)[C@H](c3ccc(-c4ccc(F)cc4)cc3)[C@@H]2C1
[15] COc1ccc2c3c([nH]c2c1)[C@H](CO)N(Cc1ccccc1OC)CC31CCN(S(=O)(=O)c2ccccc2)CC1
[16] COc1ccc2c3c(n(C)c2c1)[C@H](CO)N(C(=O)Nc1ccc(F)cc1)CC31CCN(C(=O)c2ccc3c(c2)OCO3)CC1
[17] N#C[C@@H]1[C@@H](c2ccc(C#CC3CCCC3)cc2)[C@H](CO)N1C(=O)Cc1ccccn1
[18] O=C(C[C@H]1C=C[C@@H](NC(=O)CCN2CCCCC2)[C@H](CO)O1)Nc1ccccc1
Assay by compound,13,14,15,16,17,18
AF4-AF9 inh,-0.2,1.0,-12.2,-3.5,5.6,-3.0
Ecoli rRNA inh RFP,-4.1,-0.7,3.5,-2.9,7.8,-3.3
Ecoli rRNA inh,7.1,5.6,-3.9,0.2,0.1,0.9
FGF22 binding,.,.,.,.,.,.
Ecoli rRNA inh OD600,14.4,-3.4,-5.0,-4.4,-11.9,-1.4

[19] O=C(C1CCCC1)N1CC2(C1)[C@@H](c1ccccc1)[C@H](CO)N2C(=O)CC1CC1
[20] O=C(Nc1ccccc1)N1CC(=O)N2[C@@H](CO)[C@@H](c3ccc(C#Cc4cccnc4)cc3)[C@@H]2C1
[21] N#C[C@@H]1[C@@H](c2ccc(C#CC3CCCC3)cc2)[C@H](CO)N1C(=O)c1cccc(F)c1
[22] COc1ccc(C#Cc2ccc([C@@H]3[C@H]4CN(C(=O)Nc5ccccc5F)CC(=O)N4[C@H]3CO)cc2)cc1
[23] Cc1ccc(S(=O)(=O)Nc2ccc3c(c2)C(=O)N([C@H](C)CO)C[C@H](C)[C@@H](CN(C)C(=O)NC(C)C)O3)cc1
[24] CCCNC(=O)N1CC(=O)N2[C@H](C1)[C@H](c1ccc(-c3ccc(C)cc3)cc1)[C@@H]2CO
Assay by compound,19,20,21,22,23,24
AF4-AF9 inh,-3.4,3.1,0.9,-2.4,5.1,4.8
Ecoli rRNA inh RFP,0.2,0.3,-0.2,-0.2,-6.5,-3.0
Ecoli rRNA inh,3.7,-4.8,0.4,1.2,5.8,1.7
FGF22 binding,.,.,.,.,.,.
Ecoli rRNA inh OD600,11.8,12.1,14.5,4.2,9.6,-1.2

[25] O=C(NC1CCCC1)[C@@H]1[C@@H](CO)[C@@H]2Cn3c(cccc3=O)[C@@H]2N1CCc1ccccc1
[26] COc1ccccc1NC(=O)N1CC(=O)N2[C@H](C1)[C@H](c1ccc(C#Cc3ccccc3)cc1)[C@@H]2CO
[27] O=C(C1CCCCC1)N1CC(=O)N2[C@H](CO)[C@@H](c3ccc(C#Cc4cccc(F)c4)cc3)[C@H]2C1
[28] O=C1CNC[C@@H]2[C@H](c3ccc(C4=CCCCC4)cc3)[C@@H](CO)N12
[29] COc1ccc2c3c(n(C)c2c1)[C@@H](CO)N(C(=O)Nc1ccc(F)cc1)CC31CCN(S(=O)(=O)c2cccc(C)c2)CC1
[30] C[C@@H]1CN([C@@H](C)CO)C(=O)c2cc(NS(=O)(=O)c3ccccc3)ccc2O[C@@H](C)CCCCO[C@H]1CN(C)Cc1ccc(C(F)(F)F)cc1
Assay by compound,25,26,27,28,29,30
AF4-AF9 inh,1.7,-3.3,1.2,3.5,-6.8,1.9
Ecoli rRNA inh RFP,2.1,0.2,27.1,0.2,-4.6,9.9
Ecoli rRNA inh,-4.4,2.3,-11.0,-1.3,1.6,2.1
FGF22 binding,.,.,.,.,.,.
Ecoli rRNA inh OD600,1.9,7.8,-41.8,0.9,1.6,-18.6

[31] C[C@@H]1CCCCO[C@H](CN(C)Cc2ccc(C(=O)O)cc2)[C@H](C)CN([C@H](C)CO)C(=O)c2cc(NC(=O)Nc3ccc(F)cc3)ccc2O1
[32] O=C(Cc1ccncc1)N1C[C@@H]2N[C@H](C1)C2c1ccc(-c2ccccc2)cc1 (some centres not stated)
[33] COc1ccc(S(=O)(=O)Nc2ccc3c(c2)C(=O)N([C@@H](C)CO)C[C@H](C)[C@H](CN(C)S(=O)(=O)c2ccc(Cl)cc2)OCCCC[C@@H](C)O3)cc1
[34] O=C(Nc1ccccc1)N[C@@H]1CC[C@H](CCn2cc(-c3ccccc3F)nn2)O[C@@H]1CO
[35] Cc1ccc(S(=O)(=O)Nc2ccc3c(c2)C(=O)N([C@H](C)CO)C[C@@H](C)[C@@H](CN(C)C(=O)Cc2ccccc2)OCCCC[C@@H](C)O3)cc1
[36] c1ncc(-c2ccc(C3[C@@H]4CN(Cc5ccc6c(c5)OCO6)C[C@H]3N4)cc2)cn1 (some centres not stated)
Assay by compound,31,32,33,34,35,36
AF4-AF9 inh,2.3,-1.7,-2.1,1.3,-0.7,8.2&0.9
Ecoli rRNA inh RFP,0.8,-3.2,-1.2,-2.6,3.7,0.6
Ecoli rRNA inh,-3.9,2.6,0.2,-8.6,-1.3,5.1
FGF22 binding,.,.,.,.,.,.
Ecoli rRNA inh OD600,-8.2,17.6,2.0,-4.3,-3.7,6.4

[37] COc1ccc(-c2ccc(C3[C@H]4CNC[C@@H]3N4Cc3cccc(OC)c3)cc2)cc1 (some centres not stated)
[38] C[C@@H]1CN([C@@H](C)CO)C(=O)c2c(c3ccccc3n2C)-c2ccccc2CO[C@H]1CN(C)Cc1ccc(C(=O)O)cc1
[39] CO[C@@H]1CN(C)C(=O)c2cc(NC(=O)c3cnccn3)ccc2OC[C@H](C)N(C(=O)C2CC2)C[C@@H]1C
[40] Nc1ccc2nn(-c3ccccc3)nc2c1
[41] C[C@@H]1CN([C@@H](C)CO)C(=O)c2cccc(NS(=O)(=O)c3cn(C)cn3)c2O[C@@H]1CN(C)Cc1ccc(Cl)c(Cl)c1
[42] COc1ccc2c3c(n(C)c2c1)[C@H](CO)N(C(=O)Nc1ccc(F)cc1)CC31CN(C(=O)Cc2ccncc2)C1
Assay by compound,37,38,39,40,41,42
AF4-AF9 inh,8.8&3.0,-1.6,3.3,0.5,-2.9,8.0
Ecoli rRNA inh RFP,-0.2&0.8,-3.2,0.6,7.0,-0.4,-1.0
Ecoli rRNA inh,-11.2&0.3,-2.1,2.2,-9.7,-0.6,-3.6
FGF22 binding,.,.,.,.,.,.
Ecoli rRNA inh OD600,7.4&-6.2,2.1,2.7,5.0,1.2,-3.3

[43] O=C(c1cccnc1)N1CC(=O)N2[C@H](C1)[C@@H](c1ccc(-c3cccnc3)cc1)[C@@H]2CO
[44] CCCC#Cc1ccc([C@H]2[C@H](CO)N3C(=O)CN(C(=O)CN4CCOCC4)C[C@@H]23)cc1
[45] CC(C)NC(=O)N(C)C[C@@H]1Oc2ccc(NS(C)(=O)=O)cc2C(=O)N([C@H](C)CO)C[C@H]1C
[46] O=C(Nc1ccc(Cl)cc1)N[C@@H]1CC[C@@H](CCNC(=O)c2cc(Cl)cc(Cl)c2)O[C@H]1CO
[47] Cc1ccc(S(=O)(=O)N2[C@@H]3CNC[C@H]2C3c2ccc(-c3cccc(C)c3)cc2)cc1 (some centres not stated)
[48] O=C(C[C@@H]1CC[C@H]2[C@@H](COC[C@@H](O)CN2CC2CCCC2)O1)NCc1ccc(Cl)cc1
Assay by compound,43,44,45,46,47,48
AF4-AF9 inh,0.5,-9.1,-10.5,-1.0,4.0&-2.5,-2.0
Ecoli rRNA inh RFP,-4.3,2.5,-0.4,6.7,-13.1&29.6,-19.2
Ecoli rRNA inh,5.6,0.2,1.0,-2.8,-58.6&-26.0,-62.4
FGF22 binding,.,.,.,.,.,.
Ecoli rRNA inh OD600,18.4,-6.0,1.3,-1.5,-78.5&-48.3,-79.6

[49] COc1ccc(NC(=O)N2CC(=O)N3[C@H](C2)[C@@H](c2ccc(-c4ccccc4)cc2)[C@@H]3CO)cc1
[50] CCCN1[C@@H]2c3ccc(-c4ccccc4OC)c(=O)n3C[C@H]1[C@H](CO)[C@H]2C(=O)N1CCOCC1
[51] CN(C)C(=O)c1cccc(-c2ccc(C3[C@@H]4CN(S(=O)(=O)c5ccccc5F)C[C@H]3N4)cc2)c1 (some centres not stated)
[52] O=C(C[C@@H]1C=C[C@@H](NC(=O)C2CCOCC2)[C@H](CO)O1)NCc1ccccc1Cl
[53] COc1ccc(S(=O)(=O)N[C@H]2CC[C@H](CCNC(=O)Cc3ccccn3)O[C@H]2CO)cc1
Assay by compound,49,50,51,52,53
AF4-AF9 inh,3.1,-6.9,-2.5&-2.6,-6.6,-0.6
Ecoli rRNA inh RFP,30.1,-1.9,4.2&-1.6,-3.6,0.1
Ecoli rRNA inh,-10.4,1.0,-4.2&2.1,2.3,1.4
FGF22 binding,.,.,.,.,.
Ecoli rRNA inh OD600,-53.4,-0.2,-8.6&5.8,2.8,-2.9

# In a second layout: entries from further up.
# Each structure is followed by: AF4-AF9 inh, Ecoli rRNA inh RFP, Ecoli rRNA inh, FGF22 binding, Ecoli rRNA inh OD600
[13] CN1CCC(N(C)C(=O)c2ccc(Cl)c(S(=O)(=O)N3CCOCC3)c2)CC1
  -0.2, -4.1, 7.1, ., 14.4
[14] O=C(c1cccnc1)N1CC(=O)N2[C@H](CO)[C@H](c3ccc(-c4ccc(F)cc4)cc3)[C@@H]2C1
  1.0, -0.7, 5.6, ., -3.4
[15] COc1ccc2c3c([nH]c2c1)[C@H](CO)N(Cc1ccccc1OC)CC31CCN(S(=O)(=O)c2ccccc2)CC1
  -12.2, 3.5, -3.9, ., -5.0
[16] COc1ccc2c3c(n(C)c2c1)[C@H](CO)N(C(=O)Nc1ccc(F)cc1)CC31CCN(C(=O)c2ccc3c(c2)OCO3)CC1
  -3.5, -2.9, 0.2, ., -4.4
[17] N#C[C@@H]1[C@@H](c2ccc(C#CC3CCCC3)cc2)[C@H](CO)N1C(=O)Cc1ccccn1
  5.6, 7.8, 0.1, ., -11.9
[18] O=C(C[C@H]1C=C[C@@H](NC(=O)CCN2CCCCC2)[C@H](CO)O1)Nc1ccccc1
  -3.0, -3.3, 0.9, ., -1.4
[19] O=C(C1CCCC1)N1CC2(C1)[C@@H](c1ccccc1)[C@H](CO)N2C(=O)CC1CC1
  -3.4, 0.2, 3.7, ., 11.8
[20] O=C(Nc1ccccc1)N1CC(=O)N2[C@@H](CO)[C@@H](c3ccc(C#Cc4cccnc4)cc3)[C@@H]2C1
  3.1, 0.3, -4.8, ., 12.1
[21] N#C[C@@H]1[C@@H](c2ccc(C#CC3CCCC3)cc2)[C@H](CO)N1C(=O)c1cccc(F)c1
  0.9, -0.2, 0.4, ., 14.5
